Vif TR-FRET – inhibitors of Vif binding to APOBEC3G peptide, primary screen, biochemical, TR-FRET, GST-Vif 1-94, biotin-A3G peptide, dose response retest (AID 1117319); one-dose inhibition, %; IC50 in µM for titrated hits; TR-FRET GST-Vif / biotin-A3G peptide binding; higher % means a stronger effect; test concentration not given here; strong numbers were not always called active; 0.57% of 260,000 active;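 active means above the screen mean plus three standard deviations and confirmed in dose response; inconclusive means results disagree or hit not tested in dose response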;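 further: Vif residues 1-94 fused to GST binding biotinylated APOBEC3G peptide 110-148; 0% = full assay without inhibitor and 100% = GST in place of GST-Vif; retest series ran down from 100 µM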
MLL AF4-AF9 inh – MLL-AF4/AF9 protein interaction inhibition | 0.47% of 350,000 active | inhibition, % at 10 µM | AlphaScreen, biotin-AF4 peptide binding to FLAG-AF9 | AID 651704;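 active means every replicate reaching a set inhibition limit, whatever the replicate mean, cut at about 25% in these data; inconclusive means mean inhibition reaches that limit but some replicates miss it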;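 further: 0% = plate neutral control median and 100% = total signal loss; the record names both 10 and 1 µM as test concentration; the first replicate is given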
Target sequence (P42568 whole entry, looked up): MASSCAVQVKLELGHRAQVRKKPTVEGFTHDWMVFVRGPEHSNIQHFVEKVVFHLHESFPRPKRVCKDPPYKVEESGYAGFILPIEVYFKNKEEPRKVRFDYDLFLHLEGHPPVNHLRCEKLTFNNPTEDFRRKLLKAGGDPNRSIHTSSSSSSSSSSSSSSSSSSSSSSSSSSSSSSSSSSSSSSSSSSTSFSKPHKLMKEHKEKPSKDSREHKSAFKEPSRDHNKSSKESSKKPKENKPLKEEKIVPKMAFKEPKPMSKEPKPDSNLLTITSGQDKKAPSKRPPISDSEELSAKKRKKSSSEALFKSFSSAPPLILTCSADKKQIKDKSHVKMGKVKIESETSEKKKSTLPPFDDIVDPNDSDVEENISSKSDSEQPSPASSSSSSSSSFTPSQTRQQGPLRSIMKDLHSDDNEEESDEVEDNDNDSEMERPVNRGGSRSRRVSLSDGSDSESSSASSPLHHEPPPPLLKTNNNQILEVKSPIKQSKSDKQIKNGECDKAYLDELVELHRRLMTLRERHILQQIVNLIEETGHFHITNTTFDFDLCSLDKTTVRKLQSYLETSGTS
Numbers without * were called inactive; ? = inconclusive; & = joins results of further samples. Only part of the results is shown; the hit share may differ from the screen's.

SMILES	Vif TR-FRET	MLL AF4-AF9 inh
COc1ccc(CNC(=O)O[C@H]2C[C@@H]3C(=O)N(c4ccccc4)C(=O)[C@@H]3[C@@H]3CN(S(=O)(=O)c4ccc(C)cc4)C[C@]23O)cc1OC	-6%	-2.4
CCC1(C)COC(c2ccc(OC)c(OC)c2)OC1 (centres undefined)	-12%	-4.2
C=CC[C@@H](CC(=O)N(CCO)Cc1ccccc1)C(=O)N[C@H](COC(=O)[C@@H](CC=C)CC(=O)OC(C)(C)C)Cc1ccccc1	6%	-1.9
CC[C@@]1(C(=O)OC)N[C@H](CN(C)C(C)=O)[C@@H]2C(=O)N(Cc3ccccc3)C(=O)[C@@H]21	-2%	1.1
Nc1ncnc2c1ncn2C1CCCC(CO)O1 (centres undefined)	-6%	1.7
S=C(NCCc1ccccc1)N1CCC2CC1c1c(Cl)cccc12 (centres undefined)	-4%	0.0
COc1ccc(C(CCN2CCOCC2)c2c(OC)cc(OC)c3c(-c4ccccc4)cc(=O)oc23)cc1 (centres undefined)	4%	7.5
CN(C)CC(=O)Nc1ccc2c(c1)[C@H]1C[C@H](CC(=O)NCc3ccc4c(c3)OCO4)O[C@H](CO)[C@H]1O2	-8%	-4.3&1.5
C(=NN1CCCCCC1)c1cccc2ccccc12	-9%	9.1
CN(CC1COc2ccccc2O1)C(=O)CCNS(=O)(=O)c1ccc(F)c(Cl)c1 (centres undefined)	1%	0.6
Cn1cnnc1SCc1ccc(C(=O)N/N=C(/CCC(=O)O)c2ccc(C(C)(C)C)cc2)cc1	-1%	-6.9
Cc1cc(C)c2cc(C#N)c(NCCCNC(=O)c3cccnc3)nc2c1	-14%	-2.2
CC1CN(C(=O)[C@@H]2CCCN2S(=O)(=O)c2ccc(Cl)cc2)CC(C)O1 (some centres undefined)	6%	-5.4
COc1cc(CN2c3ccccc3C(=O)CS2(=O)=O)cc(OC)c1	-3%	-5.1
CC(C)=CCCC(C)=CCN1C(=O)CN(C)C1=O	5%	2.0
COc1ccc(NC(=O)N(C)C[C@H]2Oc3ccc(NC(=O)C4CC4)cc3CC(=O)N([C@@H](C)CO)C[C@@H]2C)cc1	-6%	-1.9&-0.4
O=C(/C=C/c1ccccc1O)c1ccccc1	-3%	-1.5
CC(OC(=O)CCN1C(=O)C2CC=CCC2C1=O)C(=O)Nc1ccc(F)cc1 (centres undefined)	2%	-2.5
C[C@@H]1CN([C@@H](C)CO)C(=O)CCCn2nncc2CO[C@H]1CN(C)S(=O)(=O)c1ccc(-c2ccccc2)cc1	-2%	2.5&4.0&2.6
CCCCN1C(=O)C(CC(=O)NC2CCCCC2)CC(C(=O)N(C)C)=C1C (centres undefined)	-9%	-1.8
O=C(C=Cc1cccnc1)c1ccccc1	-4%	-2.5
Cc1ccc(NC(=S)NNC(=S)Nc2ccc(C)cc2)cc1	-1%	-0.6
O=S(=O)(NC1CCc2ccccc21)c1ccccc1 (centres undefined)	-3%	-9.1
COc1cccc(/C=C/C(=O)NNC(=O)c2ccccc2)c1OC	-14%	-3.8
COc1cccc(CN2CC(C(=O)N3CCSCC3)CCC2=O)c1 (centres undefined)	-5%	1.5
O=C(C[C@H]1C[C@H]2c3cc(NC(=O)CC4CC4)ccc3O[C@H]2[C@H](CO)O1)NCc1ccccc1F	-5%	-1.5&-3.0
CN1CCC[C@H]1CCNc1ccc2c(=O)c3ccccc3n(C)c2c1	4%	-8.9
CCOC(=O)CN1CCC(C2(c3cc4ccccc4[nH]3)OCCO2)CC1	-3%	0.1
Cc1ccc(NCN2C(=O)c3ccccc3C2=O)cc1Cl	6%	-1.9
CN(CCC#N)C(=O)COC(=O)c1c2c(nc3ccccc13)/C(=C\c1ccco1)CC2	1.7µM*	1.5
C[C@@H]1CN([C@H](C)CO)S(=O)(=O)c2ccc(C#Cc3cccc(F)c3)cc2O[C@@H]1CN(C)C(=O)CN1CCOCC1	-10%	1.6&1.0&4.4
Cc1onc(-c2ccccc2)c1C(=O)NNC(=O)c1ccccc1	-7%	-2.0
CC(=O)OCC(=O)C1(O)CCC2C3CCC4=CC(=O)CCC4(C)C3(F)C(O)CC21C (centres undefined)	-6%	-4.0
CC[C@]1(C(=O)OC)[C@H]2C(=O)N(C)C(=O)[C@H]2[C@H]2CN=C(SCc3ccc(Cl)cc3)N21	-2%	-0.9
NS(=O)(=O)c1ccc(CCNC(=O)COC(=O)Cc2ccc(Cl)cc2)cc1	-1%	-5.1
COc1ccc(OC)c(NC(=O)c2cccc(NC(=O)c3ccco3)c2)c1	8%	-0.4
CCc1nc(N)nc(N)c1-c1ccc(NCCN)c([N+](=O)[O-])c1	28%	-0.6
O=C(NC(CC(=O)N1CCN(c2ccccc2)CC1)c1ccccc1)c1ccccc1 (centres undefined)	8%	1.1
CC(=O)OCC1OC(COC(C)=O)(c2ccc(C)cc2)C(OC(C)=O)C1OC(C)=O (centres undefined)	-5%	-4.6
COc1ccccc1C(CNC(=O)C1CCN(C(=O)Nc2ccccc2)CC1)N1CCCC1 (centres undefined)	-1%	1.0
Cc1ccc(NC(=O)CSCC(=O)Nc2ccccc2C(=O)NC2CC2)cc1	2%	-1.0
Cc1cc(C)c2c(c1)OC(=O)CC2c1ccc2c(c1)OCO2 (centres undefined)	-6%	3.0
CN(C(=O)c1cccc(NC(=O)Cc2cccc(NC(=O)C3CCN(C(=O)c4ccccc4)CC3)c2)c1)C1CC1	2%	0.3
CC=CC1OCC(CC)C(CCC)O1 (centres undefined)	1%	-2.4
O=C(Nc1ccccc1)c1cc2ccccc2s1	-32%	1.3
COc1ccc(C(C)=O)cc1CON=C1CSCc2ccccc21	4%	2.1
Cn1c(=O)c2[nH]c(CCCc3nc4ccccc4[nH]3)nc2n(C)c1=O	4%	-1.1
CC(Oc1ccccc1)C(=O)Nc1nc(-c2ccccn2)cs1 (centres undefined)	2%	1.1
OC[C@@H]1[C@@H](c2ccc(F)cc2)C(c2ccccc2)=NN1c1ccccc1	4%	-33
CN(C)c1ccc(C=NN2CCCCCC2)cc1	-7%	2.3
O=S(=O)(c1ccc(NC(=S)N2CCCCC2)cc1)N1CCCCC1	9%	2.4
O=C(O)c1cccc2c1-c1ccc(Cl)cc1C2=O	-6%	-2.3
COCOCCn1cc(CN2CCS(=O)(=O)N(Cc3ccc(-c4ccccc4)cc3)C(C(C)C)C2=O)nn1 (centres undefined)	4%	0.6
CCN(C(=O)C(C)Sc1ccc(S(=O)(=O)N2CCN(C)CC2)cn1)c1ccccc1 (centres undefined)	-3%	-0.2
Cc1ccc(S(=O)(=O)c2ccsc2NC(=O)c2ccccc2)cc1	-25%	-2.3
COCCN(C(=O)c1ccco1)c1nc(-c2ccc(OC)cc2)cs1	-1%	2.7
CCOc1ccc2c(S(=O)(=O)O)cccc2c1[N+](=O)[O-]	3%	-0.6
COC(=O)c1cc2c([nH]c1=O)CCCC2=O	1%	3.2
CCOc1ccccc1C=NNC(=O)C1CC1	3%	-2.9
O=C(NCc1ccccn1)C1CCN(S(=O)(=O)c2ccccc2C(F)(F)F)CC1	6%	-2.7

Next compounds
SMILES	Vif TR-FRET	MLL AF4-AF9 inh
CC1CCC(NS(=O)(=O)c2ccc(Cl)s2)CC1 (centres undefined)	1%	-7.4
CC1(C)CC(=O)C=C(C#CC2(O)CCCCC2)C1	8%	-5.5
COc1cc(C(=O)NCCC(=O)NCc2cccs2)cc(OC)c1OC	6%	-0.2
CC(=O)Nc1ccc(/C(N=Nc2ccccc2)=N/N=C(N)N)cc1	16%	?
O=C(CN1C(=O)C(=O)N(C2CCCC2)C1=O)Nc1ccc([N+](=O)[O-])cc1	3%	-0.8
COc1cc(-c2cc(C(=O)N3CCCCCC3)c3ccccc3n2)cc(OC)c1OC	1%	-8.3
COc1ccc(OC)c(NS(=O)(=O)c2ccc3[nH]c(=O)[nH]c3c2)c1	3%	1.4
O=C(O)C(=O)Nc1ncn[nH]1	-3%	-1.2
Fc1ccc(-c2nc3ccc(Br)cn3c2Cc2ccccc2)cc1	-20%	2.5
O=C(O)C1CCC(C(=O)O)O1 (centres undefined)	2%	-2.7
Nc1ncnc2c1ncn2[C@@H]1O[C@H](CNC(=O)[C@@H]2CCN2)[C@@H](O)[C@H]1O	0%	-2.5
COC(=O)[C@H](CO)NS(=O)(=O)c1ccc(C)cc1	0%	-3.6
COc1cc(/C=C/CNC[C@H]2O[C@@H](n3cnc(C(N)=O)n3)[C@H](O)[C@@H]2O)ccc1O	-4%	-6.7
c1ccc2c(c1)-c1nc3ccccc3cc1C2N1CCCCC1 (centres undefined)	-1%	3.6
Cc1cc(C)c(NC(=O)CNC(=O)c2cc(C3CC3)nc3c2cnn3C(C)C)c(C)c1	8%	0.5
Cc1cccc(NC(=O)CN(C)S(=O)(=O)c2cnc[nH]2)c1C	-1%	-2.5
O=C(COC(=O)/C=C/c1cccc(F)c1)NCc1ccc2c(c1)OCO2	-7%	-2.7
CCN(CC)c1ccc(S(=O)(=O)N2CCOCC2)cc1NC(=O)C1CC1	-3%	-1.9
O=C1c2ccccc2[C@@H]2C[C@H]3O[C@H]3CCN12	-3%	-0.5
Fc1ccc(NC(=S)NN=Cc2ccccc2Cl)cc1	-8%	-0.1
CCCn1cnc2c(Sc3c([N+](=O)[O-])ncn3C)nc(N)nc21	0%	-5.4
O=C1CCN(Cc2ccco2)C(=S)N1	3%	0.1
Nc1cc(S(=O)(=O)c2ccc(N3CCCCC3)c(N)c2)ccc1N1CCCCC1	-4%	3.9
COc1ccc(C(=O)OCC(=O)NCC2CCCCC2)c(OC)c1	0%	-1.0
O=C(O)c1cc([N+](=O)[O-])ccc1Oc1ccccc1	-6%	-1.4
COc1cccc(C(=O)c2c(-c3ccccc3)ncc3cc(OC)c(OC)cc23)c1	7%	3.6
Cc1ccc(S(=O)(=O)N2CCN(C(=O)CCOc3ccccc3C)CC2)cc1C	-4%	0.5
CN1OC[C@@H]2CN(C(=O)C(C)(C)C)[C@H](c3ccc(-c4cc5ccccc5o4)cc3)C[C@@H]21	-6%	-1.5
COc1ccc(CN(C)C(=O)CCNS(=O)(=O)c2ccccc2)c(OC)c1	-6%	-1.9
O=S(=O)(c1cccnc1)N1CCCC(Nc2ccc(F)c(F)c2)C1 (centres undefined)	0%	2.9
CCOC(=O)C1=C(O)C(=O)C(C(=O)OCC)C1 (centres undefined)	0%	0.0
COc1ccc(NC(=S)N2CCC3CC2c2c(Cl)cccc23)c(OC)c1 (centres undefined)	5%	6.2
Cc1c(N2C(=O)/C(=C/c3ccc(N(C)C)cc3)N(C)C2=S)c(=O)n(-c2ccccc2)n1C	-6%	-1.4
C[C@H](CO)N1C[C@H](C)[C@@H](CN(C)C(=O)c2cccc(F)c2)Oc2cc(-c3cncnc3)ccc2S1(=O)=O	-6%	-1.1&1.3&-10
COc1ccc(C(=O)N2CCN(c3nc4cc(C)cc(C)c4cc3C#N)CC2)cc1	-3%	-4.2
CCOC(=O)C1=C(C)Nc2ccccc2N/C1=N\S(=O)(=O)c1ccccc1	6%	2.8
Cc1cc(C)c(NC(=O)CN(C)C(=O)CCC(=O)c2ccc(C)s2)c(C)c1	28%	1.1
Nc1ncnc2c1ncn2[C@@H]1O[C@H](CNC(=O)[C@@H]2CCCN2S(=O)(=O)c2ccc(F)cc2)[C@@H](O)[C@H]1O	0%	-3.5
COc1ccc(CCNC(=O)COc2cccc(-n3cnnn3)c2)cc1	0%	1.1
CCOC(=O)/C(=N/Nc1ccc(Br)cc1)N1CC(C)OC(C)C1 (centres undefined)	-7%	17
CN(Cc1c(C(=O)N/N=C/c2ccccc2O)nnn1-c1nonc1N)C1CCCCC1	-6%	-7.1
N#CCCN(C(=S)Nc1ccc(S(=O)(=O)N2CCOCC2)cc1)c1ccccc1F	-3%	0.9
O=c1[nH]nc(-c2cc(-c3ccccc3)nc3ccccc23)o1	-5%	1.7
CCc1nc2c(=O)[nH]cnc2o1	-6%	1.7
COc1ccc(N)cc1NC(=O)CN1CCOCC1	1%	3.6
O=C1NCCCC1(c1ccccc1)c1ccccc1	-13%	0.6
CN(CC(=O)Nc1cccc(F)c1)C(=O)c1ccc(C(=O)c2ccccc2)cc1	0%	3.4
O=C(NCCc1ccccc1O)c1cc2c(cc1[N+](=O)[O-])OCO2	-7%	1.7
O=C(c1cc(COc2cccc3cccnc23)on1)N1CCC[C@H]1CO	89µM*	41*
O=C1C=CC2(C=C1)O[C@H](Cc1ccccc1)[C@@H](Cc1ccccc1)O2	7%	3.2
